HNF4A DNA FP: change in binding of human HNF4 alpha to DNA. P41235. activity change, % at 10 µM. HNF4a-FITC DNA binding, fluorescence polarization, 1 h. actives 0.3% (n = 360,000); in the data active = activity change above about 30%, passing the limit was not always enough;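 also: controls were the assay level and a saturating level of protein; the project sought stronger binding though the title names inhibitors; some compounds called inactive have numbers as strong as hits; positive values seem to mean higher polarization but the record does not say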
AF4-AF9 inh: inhibitors of human MLL-AF4/AF9 interaction; actives 0.47% (n = 350,000); AID 651704; inhibition, % at 10 µM; AlphaScreen, biotin-AF4 peptide binding to FLAG-AF9;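 active = every replicate reaching a set inhibition limit, whatever the replicate mean, cut at about 25% in these data; inconclusive = mean inhibition reaches that limit but some replicates miss it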;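 also: 0% = plate neutral control median and 100% = total signal loss; the record names both 10 and 1 µM as test concentration; the first replicate is given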
Target sequence (P42568 whole entry, looked up): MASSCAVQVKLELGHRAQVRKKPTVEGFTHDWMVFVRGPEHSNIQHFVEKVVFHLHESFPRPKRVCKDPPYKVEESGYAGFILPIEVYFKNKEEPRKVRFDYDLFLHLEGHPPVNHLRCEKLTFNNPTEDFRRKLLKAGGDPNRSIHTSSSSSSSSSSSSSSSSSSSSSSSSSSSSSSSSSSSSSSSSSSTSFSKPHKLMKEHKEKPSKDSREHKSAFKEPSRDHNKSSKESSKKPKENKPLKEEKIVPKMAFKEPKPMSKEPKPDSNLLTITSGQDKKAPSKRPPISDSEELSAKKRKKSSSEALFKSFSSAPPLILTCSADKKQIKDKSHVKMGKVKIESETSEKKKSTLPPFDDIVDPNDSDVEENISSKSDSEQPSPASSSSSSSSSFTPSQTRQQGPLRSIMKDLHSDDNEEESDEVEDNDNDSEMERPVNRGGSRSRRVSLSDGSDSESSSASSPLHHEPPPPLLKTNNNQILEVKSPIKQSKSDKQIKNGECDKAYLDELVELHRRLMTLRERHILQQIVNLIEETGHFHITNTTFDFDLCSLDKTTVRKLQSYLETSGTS
Vif A3G: inhibitors of Vif binding to APOBEC3G peptide, primary screen, biochemical, TR-FRET, GST-Vif 1-94, biotin-A3G peptide, dose response retest (AID 1117319); TR-FRET GST-Vif / biotin-A3G peptide binding; higher % means a stronger effect; test concentration not given here; strong numbers were not always called active; inhibition, %; hits with a dose series show IC50 in µM; actives 0.57% (n = 260,000);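 active = above the screen mean plus three standard deviations and confirmed in dose response; inconclusive = results disagree or hit not tested in dose response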;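 also: Vif residues 1-94 fused to GST binding biotinylated APOBEC3G peptide 110-148; 0% = full assay without inhibitor and 100% = GST in place of GST-Vif; retest series ran down from 100 µM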
Ecoli rRNA inh: selective bacterial rRNA inhibition in E. coli. E. coli WT GFP vs humanized-ribosome RFP mutants, fluorescence, 24 h; stronger effect = lower value; DMSO median 0, no signal -100. GFP signal change (wild-type ribosome), % (test concentration not listed). actives 1.6% (n = 350,000);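 active = significant combined selectivity score with lowered wild-type GFP, culture density cut under 30%, mutant RFP and density less affected; inactive = any of these conditions unmet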; also: one replicate is shown; some compounds called inactive have numbers as strong as hits
ALR H2O2 inh: inhibitors of human sulfhydryl oxidase ALR; actives 3.8% (n = 290,000); purified ALR, DTT oxidation, H2O2 HRP-luminol luminescence; inhibition, % (concentration not given with the values);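 active = mean and each replicate at 75% or more; inconclusive = only one of the two met; inactive = neither met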;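 also: stock transfer was 7.5 nL into about 7.5 µL; 0% = neutral wells and 100% = wells with inactivated enzyme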
Target sequence (P55789 whole entry, looked up): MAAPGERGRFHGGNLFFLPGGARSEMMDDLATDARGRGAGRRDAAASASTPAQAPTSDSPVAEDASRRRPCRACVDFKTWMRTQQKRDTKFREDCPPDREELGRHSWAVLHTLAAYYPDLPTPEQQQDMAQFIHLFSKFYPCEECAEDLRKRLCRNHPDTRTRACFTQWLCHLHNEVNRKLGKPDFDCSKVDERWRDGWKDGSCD
FGF22 binding: FGF22 (human) thermal shift binding. calls only at 9.99 µM. Q9HCT0. actives 1.5% (n = 340,000). recombinant FGF22 thermal shift, SYPRO orange fluorescence; percent of sucrose octasulfate shift, DMSO zero. AID 651658;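 active = melting point raised past a set limit in the mean and every replicate; inconclusive = no clear call; three in four hits are not shown here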
Target sequence (Q9HCT0 whole entry, looked up): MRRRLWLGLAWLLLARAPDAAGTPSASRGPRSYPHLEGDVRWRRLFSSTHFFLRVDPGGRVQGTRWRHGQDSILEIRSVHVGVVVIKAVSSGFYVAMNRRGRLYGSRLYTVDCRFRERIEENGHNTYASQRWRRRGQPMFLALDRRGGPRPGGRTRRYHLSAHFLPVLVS
Ecoli growth: blocks Escherichia coli growth; OD600, 23 h; stronger effect = lower value; OD600 absorbance (test concentration not listed); actives 0.21% (n = 330,000); AID 1053175;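 active = OD600 absorbance below the run mean of sample wells minus 3.6 SD, in any replicate, cut at about 0.56 in these data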;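 also: stock transfer was 300 nL into about 60 µL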
Ecoli rRNA inh OD600: recorded beside Ecoli rRNA inh, whose call it bears; OD600 change, %; measured here: OD600 growth;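 optical density of the mix in the first replicate; 0 = DMSO median and -100 = no signal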
Ecoli rRNA inh RFP: also measured in Ecoli rRNA inh; calls as there; RFP signal change, %; measured here: RFP humanized mutant strains;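 first replicate; 0 = DMSO median and -100 = no signal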
Numbers without * were called inactive; i = inactive; ? = inconclusive; . = not tested or not shown; & = joins results of further samples.

SMILES	HNF4A DNA FP	AF4-AF9 inh	Vif A3G	Ecoli rRNA inh	Ecoli rRNA inh OD600	Ecoli rRNA inh RFP	ALR H2O2 inh	FGF22 binding	Ecoli growth
Cc1noc(C)c1NC(=O)N(C)C[C@H]1Oc2ccc(NS(=O)(=O)c3ccc(F)cc3)cc2C(=O)N([C@H](C)CO)C[C@H]1C	.	-0.5	.	5	10	-0.2	.	i	.
O=C(CCN1C(=O)C2CC=C(Cl)CC2C1=O)N1CCCCC1 (stereo not drawn)	-8.2	.	15%	.	.	.	-11	.	0.69
CC1Cc2ccccc2N1C(=O)CSc1nnc(CSc2ncccn2)n1C (stereo not drawn)	-2.9	.	1%	.	.	.	-3	.	0.74
C[C@@H]1CN([C@H](C)CO)C(=O)c2cc(NC(=O)Nc3ccc(C(F)(F)F)cc3)ccc2O[C@@H]1CN(C)CC1CC1	.	6.6	.	-1	-2	1.3	.	i	.
COc1ccc(Nc2nc(-c3ccncc3)nc3ccccc23)cc1	-0.2	-3.9	-7%	-9	-14	0.5	9	i	0.69
O=C(Nc1cc(=O)[nH]c2ncnn12)c1ccccc1Cl	1.0	.	4%	.	.	.	17	.	0.61
COc1ccc(Cl)cc1NC(=O)CN(C)C(=O)CCSc1ccc(C)cc1	-0.1	-4.3	7%	-3	-2	-1.1	.	i	0.64
CCCNC(=O)N(C)C[C@H]1Oc2cc(C#C[C@H](C)O)ccc2S(=O)(=O)N([C@@H](C)CO)C[C@@H]1C	.	-3.7	.	5	24	0.4	.	i	.
COc1ccc(-n2cc(C#N)c(=O)n(Cc3ccc(F)cc3)c2=O)cc1	-2.2	0.9	1%	8	5	-2.3	-4	i	0.74
Cc1ccc(NC(=O)c2cc(C(=O)Nc3ccc(C)cc3)n(C)n2)cc1	2.0	-13	.	18	5	-0.8	-18	i	0.68
C[C@@H]1CCCCO[C@@H](CN(C)C(=O)Nc2ccccc2)[C@@H](C)CN([C@H](C)CO)C(=O)c2cc(NS(=O)(=O)c3cccs3)ccc2O1	.	-2.4	.	3	3	-0.8	.	i	.
CCCNc1c(NS(=O)(=O)c2ccc(C3CCCCC3)cc2)c(=O)oc2ccccc12	0.4	.	-4%	.	.	.	7	.	0.71
CCC(=O)NC[C@@H]1[C@@H](c2ccc(C3=CCCC3)cc2)[C@H](CO)N1C(C)=O	.	-0.6	.	1	4	0.1	.	i	.
Cc1ccccc1S(=O)(=O)N[C@H]1CC[C@H](CCn2cc(Cc3ccccc3)nn2)O[C@@H]1CO	.	-0.4	.	-4	-10	-0.5	.	i	.
CC(C)c1cn(CC[C@@H]2CC[C@H](NS(=O)(=O)c3ccc(Cl)cc3)[C@H](CO)O2)nn1	.	-1.8	.	-5	0	-2.1	.	i	.
CCOC(=O)C1=C(O)/C(=C/c2cc(OC)c(O)c(OC)c2)SC1=Nc1ccc(OC)cc1	12	.	26%	.	.	.	.	.	0.75
Cc1c(C(=O)NCC2CCCO2)oc2ccc(S(=O)(=O)N3CCCCC3)cc12 (stereo not drawn)	2.4	-0.1	.	-2	-14	-1.6	-12	i	0.7
CC(=NNC(=S)SCc1ccccc1)c1ccccn1	14	6.8	45%	-9	14	7.2	.	i	.
CCc1nc2ccccc2c(C(=O)OCC(=O)NC2CC2)c1C	2.6	-0.7	.	8	-2	1.7	-19	i	0.7
COc1ccccc1NC1=C(NC(C)=O)C(=O)c2ccccc2C1=O	2.5	8.6	8%	-21	-24	4.2	.	i	0.65
COC(=O)[C@@]1(Cc2ccc(F)cc2)[C@H]2c3cc(C(=O)N(C)C)n(CCc4ccc(OC)c(Br)c4)c3C[C@H]2CN1C(=O)c1ccccc1	0.2	-4.1	30%	8	9	0.8	.	i	.
COC(=O)c1sc(S(=O)(=O)NCc2cccs2)c(C(=O)OC)c1C	-2.5	2.7	?	-16	-16	4.8	-2	i	0.73
O=C(Nc1ccc(F)cc1)c1cc(-c2ccncc2)nc2c(Cl)cccc12	4.8	-0.6	-6%	13	9	1.0	0	i	0.68
COc1ccc(CCNC(=O)CCNS(=O)(=O)c2ccc3c(c2)CCN3C(C)=O)cc1OC	3.8	.	22%	.	.	.	-36	.	0.72
CCOc1ccc(N(CC(=O)N2CCc3ccccc32)S(=O)(=O)c2c(C)noc2C)cc1	-0.1	-0.4	1%	-1	-10	-3.4	-66	i	0.77
Cc1nc(Nc2cccc(Cl)c2)c2oc3ccccc3c2n1	-2.4	0.1	6%	-43	-68	-9.3	8	i	0.7
COc1ccc(C2=NN(CCC(=O)NC3CCCCC3C)C(=O)CC2)cc1 (stereo not drawn)	0.7	-4.2	-1%	-1	-8	-0.6	.	i	.
COc1ccc(-c2nc(-c3ccccc3)c(-c3cc([N+](=O)[O-])ccc3C)[nH]2)cc1OC	-1.7	.	2%	.	.	.	8	.	0.78
COc1ccc2c3c([nH]c2c1)[C@H](CO)N(CC1CC1)CC31CCN(C(=O)c2ccccc2F)CC1	.	-1.8	.	0	-11	3.5	.	i	.
Cc1ccc(N/C(N)=N/c2nc(CSc3ccc(C)cc3)cc(=O)[nH]2)cc1	-1.1	.	28%	.	.	.	.	.	0.69
O=C(CNCc1ccco1)Nc1cccc(S(=O)(=O)N2CCCCC2)c1	-0.5	-1.0	-5%	2	1	-3.1	.	i	0.63
CN(C)c1ccc2c(c1)[C@@H]1C[C@@H](CC(=O)NCCc3ccccc3)O[C@@H](CO)[C@@H]1O2	.	0.4	.	2	-1	3.2	.	i	.
O=C(Cc1cc(=O)[nH]c(=O)[nH]1)N1CCC(Cc2ccccc2)CC1	4.5	1.4	3%	11	10	0.4	-12	i	0.74
O=S(=O)(c1ccccc1)c1ccc(N2CCCCCC2)cc1	2.2	-2.4	.	-8	-10	3.2	-3	i	0.71
COc1cc2[nH]c(-c3cccc(F)c3)cc(=O)c2cc1OC	2.9	3.7	6%	-5	0	0.4	-10	i	0.61
COc1ccc(C(=O)OCC(=O)NCC2CCCO2)cc1[N+](=O)[O-] (stereo not drawn)	-4.6	-2.7	.	12	8	2.8	-1	i	0.67
COc1cccc2cc(C(=O)Nc3ccccc3Cl)/c(=N/NS(=O)(=O)c3ccccc3)oc12	-3.1	-0.2	.	6	5	-1.9	-1	i	.
COC(=O)C[C@@H]1CC[C@@H]2[C@H](COc3ccc(NC(=O)c4ccccc4F)cc3C(=O)N2C)O1	.	-1.5	.	3	3	-0.3	.	i	.
NS(=O)(=O)c1cccc2cccnc12	-3.0	-0.5	2%	15	12	-8.0	2	i	0.69
Cc1ccc(SCc2cc(=O)[nH]c(Nc3nc(C)c4ccccc4n3)n2)cc1	-0.7	.	11%	.	.	.	1	.	0.66
C[C@H](CO)N1C[C@H](C)[C@@H](CN(C)S(=O)(=O)c2ccccc2)Oc2ccc(NC(=O)C3CC3)cc2CC1=O	.	-3.9	.	0	-3	-3.3	.	i	.
Cc1ccc(-c2csc3nnc(SCC(=O)Nc4nsc(-c5ccccc5)n4)n23)cc1	0.2	.	-28%&-28%	.	.	.	-3	.	0.7
C[C@@H]1CN([C@H](C)CO)C(=O)CCCn2nncc2CO[C@@H]1CN(C)C(=O)Nc1ccnc(N2CCOCC2)c1	3.8	-2.3&-1.7	.	4&-1	20&-1	-0.3&-2.1	.	i	.
O=C(CN1CCOCC1)N[C@@H]1CC[C@@H](CCNS(=O)(=O)c2ccccc2F)O[C@@H]1CO	.	0.2	.	3	4	-1.5	.	i	.
COc1cc(C)ccc1OCc1cc(C(=O)NC2CCOCC2)no1	-3.0	1.2	0%	2	1	-1.0	.	i	.
C[C@@H]1CN([C@@H](C)CO)C(=O)Cc2cc(NC(=O)NC3CCCCC3)ccc2O[C@@H]1CN(C)S(=O)(=O)c1ccccc1	.	0.8	.	-4	-4	0.7	.	i	.
Cc1cc(C)nc(NC(=O)CN2C(=O)c3ccccc3C2=O)n1	-0.8	.	-1%	.	.	.	-4	.	0.66
c1ccc2c(Oc3ccc4c(c3)OCO4)nncc2c1	-1.2	.	1%	.	.	.	-3	.	0.74
N#C[C@H]1[C@H](c2ccc(C3=CCCCC3)cc2)[C@@H](CO)N1C(=O)NC1CCCCC1	.	-0.2	.	-6	-44	21	.	i	.
Cc1cccc(Nc2ncccc2C(=O)NCc2cccs2)c1C	-0.8	.	9%	.	.	.	-5	.	0.63
C[C@H](CO)N1C[C@H](C)[C@@H](CN(C)C(=O)Nc2ccc3c(c2)OCO3)Oc2ccc(NC(=O)Nc3ccc(F)cc3)cc2C1=O	.	3.6	.	1	-3	-0.2	.	i	.
Cc1ccc(S(=O)(=O)N2[C@@H](c3ccc(Cl)cc3)C(C(=O)O)=CC[C@H]2c2cccc(Cl)c2)cc1	-2.6	1.7	.	-41	-55	2.2	6	i	.
COc1ccccc1CNC(=O)Cn1cc([N+](=O)[O-])ccc1=O	1.8	-1.0	4%	23	21	8.5	-2	i	0.69
C[C@@H]1CN([C@@H](C)CO)C(=O)c2cc(NC(=O)c3ccncc3)ccc2O[C@@H](C)CCCCO[C@H]1CN(C)C(=O)Nc1ccc2c(c1)OCO2	.	-5.2	.	0	0	0.7	.	i	.
CCS(=O)(=O)N1CC2(CN(C(=O)c3ccc(F)cc3)[C@H](CO)c3c2c2ccc(OC)cc2n3C)C1	.	-5.8	.	-10	-8	1.7	.	i	.
COc1ccc(-c2cnc3c(c2)C(=O)N([C@@H](C)CO)C[C@H](C)[C@H](CN(C)S(C)(=O)=O)O3)cc1	.	-9.1	.	7	3	-2.6	.	i	.
COc1ccc(C2C(C#N)=C(N)OC3=C2C(=O)CC(C)(C)C3)cc1OC (stereo not drawn)	-3.8	2.7	0%	20	8	4.2	15	i	0.68
C[C@H](O)C#Cc1ccc2c(c1)O[C@H](CN(C)CC1CCCCC1)[C@H](C)CN([C@H](C)CO)S2(=O)=O	.	0.4	.	12	16	-5.4	.	i	.
O=S(=O)(c1cccs1)N1CN(Cc2ccco2)c2nc3ccccc3nc21	-2.0	5.0	.	21	2	40	1	i	0.69
Cc1ccc(C(=O)Nc2ccccc2C(=O)N2CCN(c3ccccc3)CC2)cc1	-2.6	3.9	.	-3	-10	3.2	12	i	0.67
(continued)
SMILES	HNF4A DNA FP	AF4-AF9 inh	Vif A3G	Ecoli rRNA inh	Ecoli rRNA inh OD600	Ecoli rRNA inh RFP	ALR H2O2 inh	FGF22 binding	Ecoli growth
COc1ccc(CCNC(=O)C2CCN(C(=O)N(C)C)CC2)cc1OC	0.5	-2.1	-1%	5	3	-0.3	0	i	0.68
Cc1csc(SCC(=O)Nc2ccc(Cl)cn2)n1	-4.8	.	-2%	.	.	.	92*	.	0.67
CCN(CC)CCN(C(=O)c1ccc2c(c1)OCCO2)c1nc2cc3c(cc2s1)OCO3	0.2	6.2	-2%	-13	-10	-5.2	3	i	0.71
CC(=O)c1ccc(N2CCN(C(=O)C3CCN(S(=O)(=O)Cc4ccccc4)CC3)CC2)cc1	6.3	.	?	.	.	.	-1	.	0.73
OC(c1ccc2ccccc2n1)c1c(Cl)cccc1Cl (stereo not drawn)	3.0	-4.7	1%	.	.	.	.	i	0.68
Cc1cnc(C(=O)OCC(=O)Nc2ccc(Oc3ccccc3)cc2)cn1	2.3	.	-2%	.	.	.	7	.	0.72
COc1cc(Nc2nc(SCC#N)nc3ccccc23)cc(OC)c1OC	1.8	.	3%	.	.	.	10	.	0.71

Screens: PubChem BioAssay, several laboratories

This is a subset (hit frequency here may not be typical).
